MgrA-DNA mod: S. aureus MgrA-DNA binding modulation; fluorescence polarization; inhibition, %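 (about 10 µg/mL by stock and volumes)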; 0.13% of 84,000 active; AID 602314;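 active means above 50% in either of two replicates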;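 further: 0% = protein plus DNA without compound and 100% = DNA alone without protein; higher means less MgrA bound to DNA so lower polarization; one replicate is shown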
Sa helicase inh: blocks Staphylococcus aureus DNA helicase; purified S. aureus helicase, fluorescence unwinding assay; about half of the hits fall short of the stated cut; inhibition, %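 (tested at about 80 µM)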; 0.05% of 120,000 active; AID 485395;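 active means both duplicates at 50% or more, or one of them with a favoured structure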;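 further: 0% = mean of negative control wells and 100% = mean of positive control wells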
* hit, by the source's call; nt = no result given. The list is partial; count on the stated rates, not on these rows.

MgrA-DNA mod	Sa helicase inh	structure
0.1	nt	CC1(C)C2CCC1(C)C(NC(=O)c1ccco1)C2 (stereo not drawn)
-0.9	3.0	Cc1cc(C)cc(CC(c2nc3ccccc3[nH]2)C(C)c2nc3ccccc3[nH]2)c1 (stereo not drawn)
-0.1	11.0	O=C(/C=C/c1ccccc1)N1C(=O)OCC1c1ccccc1 (stereo not drawn)
0.8	-2.0	CC(C)(C)c1cc(-c2ccccc2)c(C#N)c(N)n1
1.1	nt	CCOC(=O)c1sc(-c2ccccc2)nc1CSc1nccn1C
-0.6	19.0	CS(=O)(=O)N(Cc1ccccc1)Cc1ccccc1
1.4	-29.0	O=C(C1CCCCN1S(=O)(=O)c1ccccc1)N1CCCC1 (stereo not drawn)
nt	6.0	Cc1ccc(C(=O)CCC(=O)N2CCCCCC2)cc1
nt	-8.0	O=P1(NCc2ccco2)C=C(c2ccccc2)SC(c2ccccc2)=C1
0.3	3.0	O=C(CSc1nc2ccccc2nc1N1CCOCC1)N1CCC2(CC1)OCCO2
nt	-9.0	COC(=O)CC(=O)c1cc2ccccc2oc1=O
-3.2	nt	CCOC(=O)/C(=C\Nc1ccc(F)c(Cl)c1)S(=O)(=O)c1ccc(Cl)cc1
nt	-16.0	CNC(=O)c1cc(C#N)c(SCC(=O)O)nc1N
-0.2	-2.0	Cc1nc2ccc(N=Cc3ccccc3O)cc2s1
7.9	-2.0	CCOc1ccc(OCC)c(CC2OC(c3ccccc3)=NC2=O)c1 (stereo not drawn)

Four of the entries above in order of the Sa helicase inh value, descending:
MgrA-DNA mod	Sa helicase inh	structure
-0.6	19.0	CS(=O)(=O)N(Cc1ccccc1)Cc1ccccc1
nt	-9.0	COC(=O)CC(=O)c1cc2ccccc2oc1=O
nt	-16.0	CNC(=O)c1cc(C#N)c(SCC(=O)O)nc1N
1.4	-29.0	O=C(C1CCCCN1S(=O)(=O)c1ccccc1)N1CCCC1 (stereo not drawn)

Carrying on.
MgrA-DNA mod	Sa helicase inh	structure
nt	-3.0	O=C(Oc1ccccc1)C1CCCN(C2=NS(=O)(=O)c3ccccc32)C1 (stereo not drawn)
-4.0	-2.0	O=C(Nc1ccc(N2CCCCC2)cc1)c1cccnc1
7.8	8.0	CCCc1nc(=S)c2ccccc2[nH]1
-0.8	nt	Cc1cc(C)c(-n2nnnc2SCC(=O)Nc2ccccc2Cl)c(C)c1
0.3	15.0	CCC(C)NC(=O)c1cc(Nc2ccc(C(C)C)cc2)nc2ccccc12 (stereo not drawn)
-1.2	2.0	COc1ccc(OC)c(Nc2nc(-c3c(C)nc4sccn34)cs2)c1
nt	-12.0	COC(=O)/C=C1\SC(N2N=C(c3ccco3)CC2c2ccc(OC)cc2)=NC1=O (stereo not drawn)
nt	8.0	Cn1c(O)c(N=Nc2nc3c(c(=O)[nH]c(=O)n3C)n2CCCOc2ccccc2)c(=O)n(C)c1=O
nt	11.0	O=C1CN(C(=O)COC(=O)c2cc(S(=O)(=O)N3CCOCC3)ccc2Cl)c2ccccc2N1
nt	5.0	CCC(Sc1nc(C)cc(=O)[nH]1)C(=O)Nc1ccccc1OC (stereo not drawn)
-0.7	nt	CSC(=NCc1c(N)cccc1F)NC#N
5.2	15.0	Cc1ccccc1COc1ccc2oc(-c3ccccc3)c(C(=O)O)c2c1
-1.4	nt	O=c1oc2ccc(Br)cc2cc1-c1nnc(Nc2cccc(C(F)(F)F)c2)s1
-0.7	3.0	O=C(c1ccccc1)N(Nc1ccccc1)c1ccccc1
nt	-1.0	O=C(Cn1cccc1)NCc1ccc(F)cc1
2.6	nt	CCCCCCCCCCCCN1CSC(=S)N(CCCCCCCCCCCC)C1
nt	16.0	CC(=O)N1CC(C(=O)N(CC(=O)Nc2cccc(C)c2C)CC2CCCO2)Oc2ccccc21 (stereo not drawn)
nt	-17.0	Cc1cc(C(=S)N=P(N(C)C)(N(C)C)N(C)C)c(C)n1-c1ccccc1
-0.9	-12.0	CCN(CC)C(=O)Cn1cc(S(=O)(=O)CC(=O)NCc2ccc(F)cc2)c2ccccc21
nt	-13.0	O=c1nc(-c2ccc(Cl)cc2)nc(-c2ccc(Cl)cc2)[nH]1
-2.0	5.0	CCn1c(Cc2cccn2C)nnc1SCC(=O)c1ccc(C)cc1
1.1	-4.0	COc1ccc(Cl)cc1S(=O)(=O)NC(C)C
-0.3	-17.0	COc1ccc(-c2noc(CN)n2)cc1OC
-2.0	8.0	CC(C)(C)c1cc(O)cc(C(C)(C)C)c1CN1CCN(CCN)CC1
nt	0.0	CC(=O)N1CCN(C(=S)NC(=O)c2ccc(F)cc2)CC1
nt	-80.0	CCOC(=O)/C=C1\SCC(=O)N1CCOC(=O)c1cncc(Br)c1
nt	15.0	CC(NC(N)=O)C1CC1 (stereo not drawn)
-2.9	nt	CCN(CC)CCN(CCC#N)S(=O)(=O)c1cccc2nsnc12
-1.8	-20.0	CCCCn1c(=O)c(CCC(=O)O)nc2ccccc21
nt	23.0	COc1cccc(CSc2nc3ccncc3n2CC(=O)Nc2ccc(N(C)C)cc2)c1
nt	2.0	COc1ccc(N2CCN(C(=O)CCNC(C)=O)CC2)cc1
nt	-7.0	COc1ccc(OC)c(-n2c(N)c(C#N)c3nc4ccccc4nc32)c1
nt	16.0	Cc1ccccc1CN1CCc2c(OCC(=O)N3CCOCC3)cccc2C1=O
3.9	5.0	O=C(CCCn1sc2ccccc2c1=O)N1CCc2ccccc21
10.1	nt	C1CCc2nnnn2CC1
nt	-8.0	N#CCOc1ccc(C(=O)NC2CCN(Cc3ccccc3)CC2)cc1
-3.2	-1.0	C=CCN(CC)C(=O)C1C(=O)CC(C)(C)CC1=O
5.0	6.0	Cn1ncc(C#N)c1/N=C/N1CCCCC1
nt	9.0	CC(OC(=O)c1ccc2c(=O)n3c(nc2c1)CCCCC3)C(=O)Nc1ccc(Cl)cn1 (stereo not drawn)
-1.6	nt	c1ccc(C2Cn3nnnc3-c3ccccc3O2)cc1 (stereo not drawn)
nt	26.0	Cc1nc2sccn2c(=O)c1S(=O)(=O)N1CCN(c2ccccc2)CC1
nt	10.0	COc1ccc(-c2c(-c3ccccc3)oc3ncnc(C)c23)cc1
nt	-5.0	CCCN(Cc1nnc(-c2ccco2)o1)C(=O)c1cccnc1SCc1c(C)noc1C
-0.1	0.0	O=C(NC(=S)N(Cc1cccnc1)Cc1ccccc1Cl)c1ccccc1
-1.2	nt	O=C1/C(=C\c2ccccc2)N=C2SCCCCN12
nt	1.0	c1ccc2[nH]c(C3CCN(CCC4OCCO4)CC3)nc2c1
1.6	-5.0	CCCNC(=O)Nc1[nH]c(C)c(C(=O)OCC)c1C
nt	5.0	O=C(NCc1ccccc1)c1noc2c1CCCC2
-2.3	9.0	Cc1ccc(C(C)C)c(OCCN2CC(C)CC(C)C2)c1 (stereo not drawn)
2.1	0.0	CC(C)C(=O)Nc1ccc2oc(-c3cccc4c(Br)cccc34)nc2c1
0.9	nt	Cc1ccc2cc(OC(=O)c3ccc(Oc4cc(Cl)cc(Cl)c4)o3)ccc2n1
nt	6.0	N#Cc1ccc(COC(=O)c2oc3ccccc3c2COc2ccccc2)cc1
-0.2	5.0	Clc1ccc(-c2nnn3c2nc(Cl)c2ccccc23)cc1
nt	16.0	COc1ccc(/C=C2\SC(=NC3CCCC3)NC2=O)cc1
nt	12.0	CCN(CC)C(=O)c1cn(-c2ccccc2)nc1-c1ccccc1
3.3	nt	C=CCOc1ccccc1OCC(O)CNC(C)C (stereo not drawn)
nt	6.0	COc1ccc(OC)c(NC(=O)C(C(C)C)N2C(=O)c3ccccc3C2=O)c1 (stereo not drawn)
1.2	-6.0	O=C(COC(=O)Cc1cccc(C(F)(F)F)c1)NCc1ccco1
0.7	12.0	Cc1oc(-c2ccccc2)nc1CS(=O)CC(=O)N(C)Cc1ccccc1 (stereo not drawn)
nt	7.0	N#CC1=C(NC(=O)c2cc3ccccc3oc2=O)CCC1

Following part:
MgrA-DNA mod	Sa helicase inh	structure
-2.2	17.0	O=C(CCn1c(=O)oc2ccccc21)N1CCCc2ccccc21
-0.4	10.0	CCCCn1ncc(O)c(Cl)c1=O
-1.2	nt	Cc1ccc(S(=O)(=O)CC(O)COc2ccc(Br)cc2)cc1 (stereo not drawn)
3.0	nt	Cc1ccc(O)cc1
nt	-9.0	O=C(Nc1cccc(-n2cnnn2)c1)C1CC(=O)N(c2ccc3c(c2)OCCO3)C1 (stereo not drawn)
nt	3.0	COc1ccc(OC)c(COC(=O)Cc2coc3cc(OC)ccc23)c1
0.6	8.0	Cc1nnc(C)n1N1C(=O)c2cccc3cccc(c23)C1=O
0.6	nt	Cn1ncc(C(=O)N=S(C)(=O)c2ccccc2)c1[N+](=O)[O-] (stereo not drawn)
nt	0.0	Cn1c(=O)[nH]c(=O)c2c1nc1oc(C(C)(C)C)cn12
-0.1	nt	COc1ccc(C2=NN(S(=O)(=O)c3ccc(C)cc3)C(c3ccc(F)cc3)C2)cc1 (stereo not drawn)
1.0	0.0	c1ccc(Sc2ncnc3c2oc2ccccc23)cc1
nt	12.0	CC(C)(C)OC(=O)N1CCC(c2c(C(=O)O)cnn2-c2ccccc2)CC1
nt	8.0	CCn1c(=S)[nH]c2cc(C(=O)O)ccc2c1=O
0.7	nt	Cc1cccc(C)c1NC(=O)C(C)N (stereo not drawn)
0.4	nt	CSC(=NC(=O)c1c(Cl)cccc1Cl)N1CCCC1
nt	0.0	O=C(c1ccc(CNS(=O)(=O)c2ccc(F)c(Cl)c2)cc1)N1CCOCC1
nt	4.0	COCCn1c(=NC(=O)c2ccccc2OC)sc2cc(OC)ccc21
nt	3.0	CC(C)(C)NC(=O)CN1CCN(CC(N)=S)CC1
0.2	2.0	Cc1ccnc(NC(=O)c2cccs2)c1
-2.3	nt	COc1ccc(NC(=O)C2COc3ccccc3O2)cc1 (stereo not drawn)
-1.0	nt	O=S(=O)(NC1CCSC1)c1ccc(Cl)cc1 (stereo not drawn)
nt	-14.0	C=C1C(C(=O)N2CCN(Cc3ccccc3)CC2)C1C(=O)N1CCN(Cc2ccccc2)CC1 (stereo not drawn)
-3.5	-10.0	O=c1[nH][nH]c(=S)n1Cc1ccccc1
-0.1	13.0	CCn1c(=NC(=O)CSCC(=O)Nc2cc(C)on2)sc2ccccc21
0.8	5.0	COCCn1c(=O)[nH]c2cc(C(=O)N3CCN(Cc4ccc5c(c4)OCO5)CC3)ccc2c1=O
1.7	nt	CC(=O)Nc1ccc(C(=O)CSc2nc3ccccc3c(=O)[nH]2)cc1
nt	-12.0	CCOC(=O)c1c(C)[nH]c(C)c1C(=O)Cn1c(C)nc2cc3c(cc21)OCCO3
-1.0	nt	O=C(Nc1ccccc1)Nc1ccc(C(F)(F)F)cc1Br
-0.5	nt	Cc1nc(-c2ccc(S(=O)(=O)N3CCN(c4ncnc5scc(-c6ccccc6)c45)CC3)s2)cs1
-0.3	nt	N#CCc1ccc(OS(=O)(=O)c2ccc(Cl)cc2)cc1
nt	10.0	c1ccc(-c2noc(NCCN3CCOCC3)n2)cc1
-1.2	nt	CCOC(=O)c1cccn1-c1ncc(C(F)(F)F)cc1Cl
nt	-14.0	Cc1cccc(NC(=O)Cn2cc(C(=O)C3CC3)c3ccccc32)c1C
nt	-1.0	Cc1ccc(-c2nnn(CC(=O)N3N=C(c4cccs4)CC3c3ccco3)n2)cc1 (stereo not drawn)
nt	3.0	O=C1NC(=O)C(Nc2ccccc2)S1 (stereo not drawn)
nt	2.0	O=C(Cc1cccs1)NCc1ccccc1Br
nt	-6.0	COc1ccc(C2=NC(C)(C)N(CC(=O)Nc3ccccc3)C2=O)cc1
-4.2	nt	C1=C(c2ccccc2)CC(c2ccccc2)=NN=C1c1ccccc1
-3.6	-23.0	COc1ccc2nc(N=C(N)N)nc(C)c2c1
-1.8	nt	CC(C)(C)c1cc2nc(-c3ccc4c(c3)CCC4)cc(C(F)(F)F)n2n1
0.8	11.0	CCS(=O)(=O)c1nc(S(=O)(=O)c2ccc(Cl)cc2)c(N2CCCC2)s1
0.1	6.0	O=C(Nc1ccccc1)c1cccc(S(=O)(=O)N2CCCCC2)c1
nt	-15.0	COc1ccc(C=C2C(=O)c3ccccc3C2=O)cc1
nt	-5.0	Cc1nc(COC(=O)c2ccc3c(=O)n4c(nc3c2)CCCCC4)cs1
0.3	-5.0	CCc1ccccc1NC(=O)CCNS(=O)(=O)c1ccc2[nH]c(=O)ccc2c1

A draw from above in order of length of the SMILES, rising.
MgrA-DNA mod	Sa helicase inh	structure
nt	3.0	O=C1NC(=O)C(Nc2ccccc2)S1 (stereo not drawn)
-1.2	nt	CCOC(=O)c1cccn1-c1ncc(C(F)(F)F)cc1Cl
nt	-1.0	Cc1ccc(-c2nnn(CC(=O)N3N=C(c4cccs4)CC3c3ccco3)n2)cc1 (stereo not drawn)

Continuation.
MgrA-DNA mod	Sa helicase inh	structure
-5.8	nt	CC(C=C1C(=O)NC(=O)NC1=O)c1ccccc1 (stereo not drawn)
nt	-3.0	CC(NC(=O)CCCc1cccs1)c1ccc(S(N)(=O)=O)cc1 (stereo not drawn)
-2.6	1.0	c1csc(CNc2ccc(-c3nc4ncccc4o3)cc2)c1
1.1	-10.0	O=C1CCC(=O)N1CN1CCOCC1
nt	-15.0	CC(=O)N1CC(=O)c2ccccc21
0.2	1.0	CCCCCC(=O)Nc1ccc(Cc2ccncc2)cc1
nt	-1.0	CCOc1cc(CNCc2cccnc2)cc(Cl)c1OCc1cccs1
-2.8	nt	Cc1c(C(=O)O)cc(-c2ccccc2)n1CCSCc1c(F)cccc1Cl
nt	3.0	Oc1ccc(/C=N/n2cnn(Cc3ccccc3Cl)c2=S)c(O)c1
-0.8	11.0	CCCN(CCC)Cc1c(C(=O)O)nnn1-c1nonc1N
1.6	nt	CC1(C)CC(=O)c2c(SCC(=O)NN)sc(C#N)c2C1

Part of the list above in a different format.
Results follow in this order: MgrA-DNA mod, Sa helicase inh
> c1csc(CNc2ccc(-c3nc4ncccc4o3)cc2)c1
    -2.6, 1.0
> O=C1CCC(=O)N1CN1CCOCC1
    1.1, -10.0
> CC(=O)N1CC(=O)c2ccccc21
    nt, -15.0
> CCCCCC(=O)Nc1ccc(Cc2ccncc2)cc1
    0.2, 1.0
